Assay outcomes from PubChem BioAssay.
YopH inh: YopH tyrosine phosphatase inhibitors, primary screen, biochemical, fluorescence Ex485/Em525; AID 898, 2007; inhibition, %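 (about 10 µM by stock and volumes)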; YopH tyrosine phosphatase [Yersinia enterocolitica]; hit rate 0.16% among 140,000;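 active means inhibition of 50% or more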;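 further: controls were vehicle for no effect and minimum signal wells for full effect; inactives centre near -20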
Mtb H37Rv: M. tuberculosis H37Rv growth inhibitors, H37Rv strain (AID 1626); inhibition, % at 10 µM, or IC50 in µM where a hit was titrated; hit rate 0.95% among 220,000; M. tuberculosis H37Rv growth inhibition; higher % means a stronger effect;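 active means confirmed in a dose series; inconclusive means inhibition above 80% but not taken into the dose series; inactive means below 80% or under 30% at every dose of the series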;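 further: bacteria incubated seven days before Alamar blue readout; 0% = bacteria only wells and 100% = bacteria with antibiotic wells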
Arbovirus inh: antivirals against arbovirus infection, primary screen, cell-based, full library, 10K replicate subset; arbovirus infection cell-based antiviral screen; AID 1251, 2008; inhibition, % at 10 µM; hit rate 0.37% among 200,000;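 active means inhibition from about 30%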;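 further: bluetongue infection of BSR cells; cell survival read as ATP light after 72 h; 0% = infected wells without compound and 100% = uninfected wells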
RecA intein inh: Mtb RecA intein splicing inhibitors, primary screen, biochemical, fluorescence, HTS | Protein RecA (Mycobacterium tuberculosis (strain ATCC 25618 / H37Rv)), P9WHJ3 | cell-free RecA intein splicing | inhibition, %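 (about 9 µM by stock and volumes)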 | hit rate 0.75% among 290,000 | AID 2221, 2009; in the data active means inhibition above about 30%; inconclusive means no clear call, values can overlap the other calls;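 further: 0% = vehicle wells and 100% = reference inhibitor control wells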
Target sequence (P9WHJ3 whole entry, looked up): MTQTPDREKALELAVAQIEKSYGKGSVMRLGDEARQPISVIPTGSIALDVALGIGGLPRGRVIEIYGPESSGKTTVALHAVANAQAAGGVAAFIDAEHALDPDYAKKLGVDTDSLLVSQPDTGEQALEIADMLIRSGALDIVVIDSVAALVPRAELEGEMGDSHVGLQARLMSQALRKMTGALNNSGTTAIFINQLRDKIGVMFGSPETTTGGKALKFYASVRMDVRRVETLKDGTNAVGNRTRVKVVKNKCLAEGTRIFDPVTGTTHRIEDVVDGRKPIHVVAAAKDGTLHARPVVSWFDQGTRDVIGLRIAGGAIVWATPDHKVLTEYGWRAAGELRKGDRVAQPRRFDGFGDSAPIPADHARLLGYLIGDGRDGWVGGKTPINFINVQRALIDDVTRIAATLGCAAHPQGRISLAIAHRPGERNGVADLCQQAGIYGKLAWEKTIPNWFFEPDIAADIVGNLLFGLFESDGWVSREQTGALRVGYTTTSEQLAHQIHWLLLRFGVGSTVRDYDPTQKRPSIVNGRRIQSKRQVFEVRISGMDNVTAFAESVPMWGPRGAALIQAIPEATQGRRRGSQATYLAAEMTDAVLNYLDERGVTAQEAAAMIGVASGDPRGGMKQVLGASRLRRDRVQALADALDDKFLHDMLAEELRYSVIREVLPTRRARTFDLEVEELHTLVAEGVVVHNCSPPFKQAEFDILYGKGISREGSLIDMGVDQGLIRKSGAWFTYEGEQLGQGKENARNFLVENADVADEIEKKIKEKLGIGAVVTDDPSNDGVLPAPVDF
Mtb bLac sens: beta-lactam sensitization of Mtb H37Rv, H37Rv. M. tuberculosis H37Rv growth with meropenem, percent inhibition; hits of this screen are not shown here. inhibition, % at 25 µM. hit rate 0.27% among 330,000. AID 434955, 2010;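 active means about 74% or more and at least 40 points above the plate without the antibiotic, then above 30% in a dose series; inconclusive means first-round hits that could not be retested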;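 further: growth measured after seven days incubation then overnight dye step; 0% = bacteria only wells and 100% = bacteria with antibiotic; twin plates without the antibiotic show which effects depend on it; some results filed as inactive read as strong as hits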
Arbovirus inh repeat: second read-out of Arbovirus inh, no call of its own (marks repeat the call); inhibition, %; measured here: 10K subset replicate screen; many hits read low in the repeat;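 first of two repeat runs on a subset; 0% = infected and 100% = uninfected wells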
Active calls of the source: *; u = inconclusive; x = not tested or not shown. Not all compounds are listed; the hit share may differ from the screen's.

SMILES | YopH inh | Mtb H37Rv | Arbovirus inh | RecA intein inh | Mtb bLac sens | others
C=CCn1c(SCC(=O)Nc2ccccc2OC)nnc1-c1ccccn1 | 4 | -2% | -8 | 3.2 | -8
CN(C)C(=O)c1ccc(-c2cc(C(F)(F)F)nn2C)s1 | x | -7% | x | 0.5 | 14
O=S(=O)(c1ccc2ccccc2c1)N1CCc2ccccc21 | x | x | x | -0.8 | 1
O=C(Nc1ccccc1)c1cccc(Cn2cc(C(F)(F)F)ccc2=O)c1 | x | 14% | x | 1.3 | -4
O=C(Oc1ccccc1)c1cccc(N2C(=O)CCC2=O)c1 | -26 | -4% | -3 | -3.3 | 3 | Arbovirus inh repeat=4
O=C(CC1C(=O)NCCN1CC1CCCCC1)NCc1ccccc1Cl (stereo not given) | x | -4% | 7 | 3.3 | -3
CCCn1c(Cc2ccccc2)nnc1SCC(=O)N1CCOCC1 | -16 | -5% | 5 | 2.3 | -6
COc1ccc(NC(=O)CSc2nn3c(=O)c(C)nnc3s2)cc1 | x | x | x | 2.1 | u
CCCC12CN3CC(C)(CN(C1)C31CCCCC1)C2=O | -22 | 1% | 2 | -0.8 | -6
Cc1ccc(/C=C/c2ccc(=O)n(Cc3ccc(Cl)cc3Cl)n2)cc1 | -23 | x | 0 | 2.3 | -1
C=CCNC(=O)c1ccccc1NC(=O)C1COc2ccccc2O1 (stereo not given) | x | 3% | 7 | -2.7 | 3
CCOC(=O)C1=NNC2(CC(=O)N(c3cc(C)cc(C)c3)C2=O)C1 (stereo not given) | x | -5% | x | 0.7 | -7
O=C(Cn1nnc(-c2ccccc2NC(=O)c2ccco2)n1)NC1CCCCC1 | -51 | -4% | -6 | x | -4
COc1ccc(NS(=O)(=O)c2ccc(C)c(C(=O)N(C)Cc3ccc(OC)cc3OC)c2)cc1 | x | x | x | 2.3 | -7
OCCN1CCN(CCOc2ccccc2-c2ccccc2)CC1 | -22 | 5% | -19 | 0.7 | -4
Cc1ccc(C(=O)N/C(=C/c2ccccc2)C(=O)NCC2CCCO2)cc1 (stereo not given) | x | 5% | 0 | -0.6 | -1
Cc1cc(OC(C)C(=O)NC2CCN(Cc3ccccc3)CC2)c2c(C)cc(=O)oc2c1 (stereo not given) | x | x | x | -1.8 | 1
O=C(CSc1nnc(Cc2ccccc2)o1)NC1CC2CCC1C2 (stereo not given) | 26 | 2% | 10 | x | 68
Cc1cccc2sc(NS(=O)(=O)c3ccccc3)nc12 | x | x | x | 3.2 | 3
O=C(O)/C=C\C(=O)Nc1ccc(N2CCN(c3ccc(Cl)c(Cl)c3)CC2)cc1 | x | 3% | 13 | 12 | 22
CN1CCN(c2ccc(Cl)cc2NC(=O)c2ccc(S(=O)(=O)N3CCCCCC3)cc2)CC1 | -12 | -5% | 2 | 0.1 | -7
N#Cc1ccc(OCC(=O)N/N=C(\CCC(=O)O)c2cccs2)cc1 | x | 0% | -2 | -6.3 | -7
Cc1ccc(C)c(NC(=O)COC(=O)c2cccc3c2C(=O)c2ccccc2C3=O)c1 | 1 | 7% | 12 | -5.4 | 4
C=CCc1ccc(OCCCNCc2ccccc2)c(OC)c1 | x | x | x | 2.0 | 4
Clc1ccccc1-c1nnc(-c2ccc3c(c2)OCO3)o1 | x | -6% | -7 | 12 | 66
(continued)
SMILES | YopH inh | Mtb H37Rv | Arbovirus inh | RecA intein inh | Mtb bLac sens | others
CN(CCc1ccccn1)C(=O)Nc1ccc(C(C)(C)C)cc1 | x | -7% | x | 1.6 | -3
COc1ccccc1CNC(=O)C[n+]1ccccc1 | -16 | -11% | 11 | 0.3 | -8
COC(=O)Nc1nc(-c2ccc(F)cc2)c(C)s1 | x | -5% | -10 | 3.9 | -11
O=C(N/N=C/c1cccc([N+](=O)[O-])c1)c1cc(-c2ccccc2)nc2ccccc12 | -20 | 0% | -5 | x | -4
Cc1noc(C)c1C(=O)NC(C)c1ccc(Cl)cc1Cl (stereo not given) | x | -7% | 4 | -0.1 | -1
Cc1ccc(-n2cc(-c3ccc([N+](=O)[O-])cc3)[nH]c2=S)c(C)c1 | -26 | 3% | 4 | 2.5 | 7
Cc1cc2c(c(=O)n1Cc1ccco1)C(c1ccccc1)C(C#N)=C(N)O2 (stereo not given) | -18 | -5% | 1 | -1.8 | 2
CCCN1C(=O)c2ccc(C(=O)Nc3cc(C)on3)cc2C1=O | 5 | -1% | -2 | -1.6 | 76
Cc1ccccc1N1CCN(C(=O)c2ccc(Oc3ccc(C(F)(F)F)cn3)cc2)CC1 | -39 | u | -8 | 10 | 98
Cc1ccc(CNC(=O)C(=O)c2cn(CC(=O)N3CCOCC3)c3ccccc23)cc1 | x | x | x | -2.8 | -4
O=C(CCCN1C(=O)/C(=C/c2ccccc2Cl)SC1=S)NNC(=O)c1cccnc1 | x | 4% | x | 12 | 30
CC(C)Cn1c(N)c(C=O)c(=O)[nH]c1=O | x | 1% | 0 | -3.0 | 3
CCOc1cc(/C=N/n2cnnc2)ccc1OS(=O)(=O)c1ccc(C)cc1 | x | 4% | -5 | 0.5 | -2
COC(=O)c1cc2sc(Cl)cc2n1CC(=O)N1CCCc2ccccc21 | -26 | 8% | -6 | -1.2 | 8
CC(C)c1ccc(NC(=O)c2cnn(-c3ccccc3)c2NC(=O)c2ccco2)cc1 | -40 | 5% | 3 | 0.9 | 49 | Arbovirus inh repeat=0
O=C(O)COCC(=O)N1CCN(c2cc(C(F)(F)F)nc3ccccc23)CC1 | x | x | x | -4.0 | 1
CN1CCN(C(=O)c2ccc(CSc3nc4ccncc4n3Cc3ccc(F)cc3)cc2)CC1 | -22 | 0% | -6 | -5.0 | -4
CCc1ccccc1N=C1SCC(=O)N1C | -19 | 3% | -5 | -1.5 | 0
CC(C)(C)OC(=O)NCCCC[C@H](NC(=O)c1nc[nH]c1C(=O)N1CCc2ccccc2C1)C(=O)OC(C)(C)C | x | -4% | x | 1.2 | -7
COc1ccc(S(=O)(=O)NCc2ccc3c(c2)OCO3)cc1C(=O)O | -52 | -6% | 10 | -2.0 | 0 | Arbovirus inh repeat=4
Nc1nc(C2CCCCC2)cs1 | 11 | -7% | -5 | -0.9 | 18
O=C(NCCc1nc2ccccc2[nH]1)c1ccc(Cl)c([N+](=O)[O-])c1 | -25 | -2% | -2 | -2.0 | -4
O=C(c1cc(COc2ccc(F)cc2Cl)on1)N1CCCCCCC1 | x | x | x | 6.3 | 5
CCOC(=O)N/N=C/c1ccc(OCCSc2ccc(Cl)cc2)c(OC)c1 | -36 | 3% | 1 | -2.5 | 9
FC(F)(F)c1nc(Sc2ncccc2C(F)(F)F)n[nH]1 | x | 7% | x | -0.8 | 47
Next part:
SMILES | YopH inh | Mtb H37Rv | Arbovirus inh | RecA intein inh | Mtb bLac sens | others
c1ccc2c(c1)CCCC2C1=NCCN1 (stereo not given) | -18 | -6% | 5 | -1.2 | -9
CCOCc1nnc(NC(=O)c2cccc(OC)c2)s1 | x | -3% | 5 | 0.7 | 1
COc1cccc(NC=C2C(=O)OC(C)(C)OC2=O)c1 | -31 | -8% | 9 | -1.3 | -8 | Arbovirus inh repeat=-2
CC1(C)OC(=O)C(=CNc2cccc(C(=O)O)c2)C(=O)O1 | -34 | 0% | 0 | -1.3 | 0
O=C(CN1N=C(c2ccc(Cl)cc2)CCC1=O)NCc1cccs1 | x | -9% | 5 | 4.9 | 2
Cc1ccc(S(=O)(=O)/N=C(\c2ccccc2)N(C)S(=O)(=O)c2ccc(C)cc2)cc1 | 4 | 4% | 2 | -1.5 | 5
COc1ccc(S(=O)(=O)N2CCCCCC2)cc1NC(=O)CC1OC(=O)c2ccccc21 (stereo not given) | x | x | x | -2.8 | -2
CS(=O)(=O)N1CCN(c2ccccc2NC(=O)c2cc(Br)ccc2Cl)CC1 | x | -4% | 10 | x | 1
COc1cc(NC(=O)c2ccc(Cl)cc2)c(OC)cc1NC(=O)CN1CCCCC1 | x | 8.7µM* | 1 | 1.4 | 81
CSc1ccccc1NC(=O)C(C)N1C(=O)c2ccccc2S1(=O)=O (stereo not given) | x | x | x | 1.4 | -6
CSc1[nH]c(=O)c(C(=O)O)cc1C#N | -52 | -10% | 5 | -4.6 | -5
CCCCn1c(SC(C)C(N)=O)nc2cc(C(=O)OC)ccc2c1=O (stereo not given) | -19 | 7% | 1 | -1.2 | 34
O=C1C2C3C=CC(C3)C2C(=O)N1CCN1CCN(S(=O)(=O)c2ccc3ccccc3c2)CC1 (stereo not given) | -30 | -8% | 0 | -0.8 | -8 | Arbovirus inh repeat=1
COCCNC(=O)C(=O)NNC(=O)c1ccccc1OC | x | -2% | -4 | 2.4 | -1
Cc1ccc(N2CCN(C(=O)N3CCCC3)CC2)cc1C | -23 | -1% | 8 | -1.9 | 3
C=CCSc1nc(=O)n2cccc(C)c2n1 | -1 | -6% | -2 | 0.1 | -5
CCN(CCNC(=O)C1CCN(S(C)(=O)=O)CC1)c1ccccc1 | -2 | 1% | -3 | -2.2 | -11
CSCC[C@H](NC(=O)OC(C)(C)C)C(=O)N1CCC(C(=O)NCC(=O)Nc2ccc(C)cc2)CC1 | x | x | x | -0.2 | -6
Cn1c(=O)c(C(=O)COc2ccc(C#N)cc2)c(N)n(Cc2ccccc2)c1=O | x | -1% | -2 | -1.8 | 5
CCCn1ncc(CN2CCN(Cc3ccsc3)C(CCO)C2)c1C (stereo not given) | x | 0% | 0 | -0.7 | 1
O=C(c1noc2c1CSc1ccccc1-2)N1CCN(c2ccc(Cl)cc2)CC1 | x | x | x | -1.6 | 78
COc1ccccc1NC(=O)CCCCC(=O)Nc1ccccc1OC | x | x | x | -0.5 | -4
O=C(Nc1ccc(-c2nnn(CC(=O)N3CCN(C(=O)c4ccco4)CC3)n2)cc1)c1ccc(F)cc1 | x | -1% | -2 | 2.9 | -5
CCOC(=O)c1ccccc1NC(=O)c1cccs1 | 1 | 10% | -1 | x | 1
C/C(CC(=O)Nc1ccc(Cl)cc1Cl)=N\NC(=O)c1ccco1 | -12 | 1% | -6 | 0.9 | 12
Cc1cc(C(C)(C)C)oc1C(=O)OCC(=O)NC1CCCCC1 | x | 8% | 20 | -2.1 | 4
CCc1ccccc1NS(=O)(=O)c1cc2c(cc1C)n(C)c(=O)c(=O)n2C | x | x | x | 2.3 | u
Cc1ccc(NCC(=O)N/N=C\c2cccc(O)c2)cc1 | x | -5% | 0 | -0.8 | -3

Pulled one by one from above:
SMILES | YopH inh | Mtb H37Rv | Arbovirus inh | RecA intein inh | Mtb bLac sens | others
CN(CCc1ccccn1)C(=O)Nc1ccc(C(C)(C)C)cc1 | x | -7% | x | 1.6 | -3
O=C(CC1C(=O)NCCN1CC1CCCCC1)NCc1ccccc1Cl (stereo not given) | x | -4% | 7 | 3.3 | -3
Cc1ccc(N2CCN(C(=O)N3CCCC3)CC2)cc1C | -23 | -1% | 8 | -1.9 | 3
CCCN1C(=O)c2ccc(C(=O)Nc3cc(C)on3)cc2C1=O | 5 | -1% | -2 | -1.6 | 76
CCCn1ncc(CN2CCN(Cc3ccsc3)C(CCO)C2)c1C (stereo not given) | x | 0% | 0 | -0.7 | 1
O=C(CN1N=C(c2ccc(Cl)cc2)CCC1=O)NCc1cccs1 | x | -9% | 5 | 4.9 | 2
Cc1ccc(S(=O)(=O)/N=C(\c2ccccc2)N(C)S(=O)(=O)c2ccc(C)cc2)cc1 | 4 | 4% | 2 | -1.5 | 5

Ordered by molecular weight (smallest number first): 3 of the compounds above.
SMILES | YopH inh | Mtb H37Rv | Arbovirus inh | RecA intein inh | Mtb bLac sens | others
Cc1ccc(NCC(=O)N/N=C\c2cccc(O)c2)cc1 | x | -5% | 0 | -0.8 | -3
CCOCc1nnc(NC(=O)c2cccc(OC)c2)s1 | x | -3% | 5 | 0.7 | 1
COc1ccccc1NC(=O)CCCCC(=O)Nc1ccccc1OC | x | x | x | -0.5 | -4
